HPGD inh: blocks human HPGD enzyme activity | P15428 | purified HPGD, NADH fluorescence kinetic, PGE2 substrate | Potency, µM, for the others: at the highest dose activity change, negative = inhibition, hits mostly inhibitors | 4.3% of 150,000 active; active = well fitted inhibition curve with a large enough effect (not every such curve was filed as active); inconclusive = small, poorly fitted or top-dose-only effect, or another doubt; inactive = no such curve, though single readings can be large or run the other way;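 also: top concentration of the series not given in the record; plate controls included wells without enzyme; inactives centre near -10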
Target sequence (P15428 whole entry, looked up): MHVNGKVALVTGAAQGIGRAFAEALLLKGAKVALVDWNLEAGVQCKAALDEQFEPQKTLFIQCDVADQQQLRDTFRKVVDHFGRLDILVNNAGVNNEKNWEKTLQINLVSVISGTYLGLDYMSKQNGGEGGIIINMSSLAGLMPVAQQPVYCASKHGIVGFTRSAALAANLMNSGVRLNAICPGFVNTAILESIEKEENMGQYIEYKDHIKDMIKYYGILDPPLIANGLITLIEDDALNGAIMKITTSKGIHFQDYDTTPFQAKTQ
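20 nM HPGD preincubated 15 min at room temperature with compound in 50 mM Tris-HCl pH 8, 0.01% Tween 20. Started with 1 mM NAD+ and 30 uM prostaglandin E2; NADH fluorescence (360/450 nm) read 5 times over 30-s intervals, last minus first.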
Starred values were filed as active, the others as inactive; ? = inconclusive. % is scaled to controls: 0 for no effect and ±100 for the full control effect; potency is read from the fitted curve at half-maximal effect.

HPGD inh,Structure
-21.4%,O=C(CSc1nc(-c2ccccc2Cl)ns1)NCc1ccco1
-5.5%,C=CCNc1cc(C)oc(=O)c1C(=O)CCC
-7.9%,O=C(Nc1ccc(NC(=O)C2CC2)nc1)c1cccs1
-1.9%,CN=C(Nc1cc(C)nn1-c1ccccc1)c1ccccc1
-26.4%,CC(C)(C)C(=O)Nc1ccc(C(=O)NCc2cccnc2)cc1
-20.9%,O=C(Cc1ccc(Cl)cc1)NNC(=O)Nc1cccc2ccccc12
-19.6%,CCN(CC)C1=N/C(=C\c2ccc(OC)cc2)C(=O)N1c1ccccc1
3.3%,CN1C(=O)COc2ccc(C(=O)c3ccccc3C(=O)O)cc21
-11.7%,COc1ccc(CNc2nc(-c3ccccc3CN(C)C)nc3ccccc23)c(OC)c1
-1.6%,CC1CCC(N2CCN(c3ncccn3)CC2)CC1 (stereo not drawn)
-20.5%,Cc1nn(C)c(Cl)c1NC(=O)OCc1ccc(Cl)cc1Cl
-6.4%,CC(NC(=O)CN1CCCC1)C12CC3CC(CC(C3)C1)C2 (stereo not drawn)
-29.1%,C=CCN1C(=O)C(O)=C(C(C)=O)C1c1ccccc1F (stereo not drawn)
-9.6%,C/C(N)=C(/C#N)C(=O)COC(=O)c1ccccc1O
0.3%,O=C(Cn1ccc2ccccc2c1=O)Nc1ccc2c(c1)OCO2
-7.8%,CCc1nn(CC(=O)NCCCN(Cc2ccccc2)C(C)C)c(=O)c2cc3sccc3n12
-21.3%,COc1ccccc1-n1c(C)nc2cc(C(=O)NCc3ccc4c(c3)OCO4)ccc21
-24.8%,CC(C)c1ccc(NC(=O)COC(=O)CCC(=O)c2cccs2)cc1
-7.3%,CCC(C(=O)NCc1ccccc1OC)n1nc(C)n2c(cc3occc32)c1=O (stereo not drawn)
?,O=C(O)CCC(=O)Nc1ccc(-c2nnc(-c3ccco3)o2)cc1
-3.2%,COc1ccc(OCC(O)CNC(=O)c2ccc(Br)cc2)cc1 (stereo not drawn)
-1.1%,CC(=O)OC1CC(OC(C)=O)[C@]2(C)C(CC(=O)[C@]3(C)C2CC[C@@]2(C)C(c4ccoc4)OC(=O)C4O[C@@]423)C1(C)C (stereo partly drawn)
-29.8%,CSc1ccccc1N=CC1=C(O)CC(C)(C)CC1=O
-5.1%,COc1cccc(NC(=O)NC2CCN(Cc3nnnn3Cc3ccc(F)cc3)CC2)c1
-15.1%,O=C(N/N=C/c1ccc(-c2ccccc2[N+](=O)[O-])o1)c1cccnc1

Carrying on.
HPGD inh,Structure
-15.2%,COc1ccccc1/C=C/C=N/NC(=O)CCC1C(=O)NN=C1C (stereo not drawn)
-3.7%,COc1ccccc1CN1CCCC2(CCN(C(=O)c3ccncc3)CC2)C1
-4.0%,CCOCCCNC(=O)C(NC(=O)CNC(C)=O)c1ccc(C)cc1 (stereo not drawn)
-7.4%,CC(C)[C@H](NS(=O)(=O)c1ccc2c(c1)OCCO2)C(=O)OCC(=O)Nc1cccc(Cl)c1Cl
-28.7%,COC(=O)c1[nH]c2cccc(OC)c2c1NC(=O)CN1CCC(C(N)=O)(N2CCCCC2)CC1
0.4%,C#CCOCCOCCOCCNc1nc(N2CCN(C(=O)[C@H](C(C)C)n3cc(CCO)nn3)CC2)nc(N2CCN(C(=O)[C@H]([C@@H](C)CC)n3cc(CCCCN)nn3)CC2)n1
-9.1%,CCCCNC(=O)CS(=O)Cc1nc(-c2ccc(C)cc2)oc1C (stereo not drawn)
-8.2%,O=C1c2ccccc2C(=O)N1CCCCCc1nc(-c2ccccc2)no1
-13.9%,Cc1cc(C)n2nc3ccccc3c2n1
-3.3%,C=C1N(CCCCCC(=O)O)C(=O)OC12CCCCC2
-7.4%,CCCCC(=O)Nc1ccc(NC(=O)c2ccccc2[N+](=O)[O-])cc1OC
-18.1%,O=C(NCCc1ccccn1)c1cc(-c2cccc3ccccc23)nc2ccccc12
-11.2%,CN1CCN(c2nc(N3CCN(c4ccccc4)CC3)ncc2F)CC1
-4.5%,COc1ccc(C(=O)N/N=C2\SCC(=O)N2Cc2ccc3c(c2)OCO3)c(OC)c1
-8.2%,Cc1ccc(N=c2c([N+](=O)[O-])nn(-c3ccccc3)n2O)c(C)c1
?,CCOC(=O)c1c(NC(=O)c2ccc(N3C(=O)[C@@H]4[C@H](C3=O)[C@H]3C=C[C@@H]4C3)cc2)sc2c1CCCC2
?,CCCOc1ccc(-c2nnc(-c3ccco3)o2)cc1
-22.5%,O=C(CSc1nnc(C2CC2)n1Cc1ccccc1)c1ccc(S(=O)(=O)N2CCOCC2)cc1
-12.1%,CC(C)CCn1c(=O)c(C(=O)N/N=C/c2cccc(F)c2)c(O)c2ccccc21
-7.7%,COc1cc(NC(=O)CN2c3ccccc3CC2C)cc(OC)c1OC (stereo not drawn)
-0.6%,CCOC(=O)C(=CNCC(=O)O)C(=O)OCC
-6.2%,C[C@H]1C[C@@H]2[C@H]([C@@H](O)C[C@@]3(C)[C@H]2CC[C@]3(O)C(=O)CO)[C@@]2(C)C=CC(=O)C=C12
-14.0%,CC(NC(=S)NCCc1ccccc1)C(c1cccs1)N1CCN(C)CC1 (stereo not drawn)
-22.3%,O=C(NCc1ccccc1)c1ccc(Cn2cc(C(F)(F)F)ccc2=O)cc1
?,CCOC(=O)c1ccc2ncc(C(=O)OCC)c(NCc3ccco3)c2c1

More records follow.
HPGD inh,Structure
-7.8%,CN(Cc1ccco1)c1nc(-c2ccccc2Cl)nc2ccccc12
-5.5%,COC(=O)C1=C(COc2ccccc2)NC(=O)NC1c1ccc(Br)cc1 (stereo not drawn)
-12.8%,Cn1c(=O)c2c(nc(N3CCc4ccccc4C3)n2Cc2ccccc2F)n(C)c1=O
-5.5%,CCCS(=O)(=O)N1CCc2cc(OC)c(OC)cc2C1
?,CN(C)CCCNc1oc(-c2ccccc2)nc1C#N
-15.1%,CCc1ccc(C(=O)NC(=S)Nc2ccc3c(c2)OCCO3)cc1
-30.0%,CSCCC(NC(=O)c1ccccc1)C(=O)OCC(=O)Nc1ccc(C)c(Cl)c1 (stereo not drawn)
0.7%,CN(C)S(=O)(=O)c1ccc(NC(=O)COC(=O)c2ccccn2)cc1
-7.5%,CC12CC(NC(=O)N1CCc1ccccc1)c1cc(Cl)ccc1O2 (stereo not drawn)
-5.7%,Cc1sc2ncn(CCn3cnc4sc(C)c(C)c4c3=O)c(=O)c2c1C
-11.5%,COc1ccccc1NC(=S)NCCc1ccc(Cl)cc1
-8.3%,CC(C)(C)n1ncc2c(=O)n(Cc3ccc(Cl)cc3Cl)cnc21
-21.6%,Cn1c(N)c(C(=O)COC(=O)C2CCC(C(C)(C)C)CC2)c(=O)n(C)c1=O (stereo not drawn)
-11.7%,CCN1CCN(CCCNC(=O)C2c3ccccc3C(=O)N(C)C2c2ccc(OC)cc2)CC1 (stereo not drawn)
-11.7%,O=C(Nc1ccc2c(c1)oc1ccc(S(=O)(=O)N3CCCC3)cc12)C1CC1
-6.3%,COC(=O)CSc1nc2ccccc2c(=O)n1C
-12.5%,O=C(COC(=O)c1cccc(S(=O)(=O)N2CCc3ccccc3C2)c1)NCc1ccco1
-16.6%,Cc1nn(-c2ccccc2)c(C)c1NC(=O)COc1ccc(Cl)cc1Cl
-28.7%,C=CCn1c(-c2cccc(OC)c2)n[nH]c1=S
-6.7%,Cc1cc(NC(=O)C2CC(c3cccc(Br)c3)=NO2)no1 (stereo not drawn)
-6.3%,CCOC(=O)C1=NN(c2ccccc2)C(c2ccccc2)CC1=O (stereo not drawn)
?,CCCc1nc2oc3c(NCCOCCO)ncnc3c2c2c1COC(C)(C)C2
-1.1%,CC(C)C(NS(=O)(=O)c1cccs1)C(=O)N1CCc2ccccc2C1 (stereo not drawn)
-8.6%,CC(=O)CCc1ccc2oc(C(=O)O)c(C)c2c1
25.1µM*,O=C(NC1CCCCCC1)c1cccs1

The results go on.
HPGD inh,Structure
-15.0%,CCN(CC)S(=O)(=O)N1CCC(C(=O)NCC2COc3ccccc3O2)CC1 (stereo not drawn)
?,CCOC(=O)C1=C(C)NC(C)=C(C(=O)OCC)C1/C=C/c1ccccc1
-19.3%,O=C(COCC(=O)N/N=C/c1ccccc1F)N/N=C/c1ccccc1F
-3.1%,O=C(Nc1ccc(N2CCN(Cc3ccccc3Cl)CC2)cc1)c1cccnc1
?,C/C(=N/NC(=O)c1cccs1)c1ccc(NC(=O)COc2ccc(Cl)cc2Cl)cc1
-24.1%,NC(=O)C1(NC(=O)[C@@H]2CC3(CC(c4cccc(NC(=O)c5cc([N+](=O)[O-])cc([N+](=O)[O-])c5)c4)=NO3)CN2C(=O)c2ccccc2)CC1 (stereo partly drawn)
?,COc1ccc(Cc2nn3c(-c4ccccc4Br)nnc3s2)cc1
-6.8%,Cc1ccc(C(=O)N2CC(=O)Nc3ccccc32)o1
-14.5%,COc1ccc(C(=S)N2CCCC2)cc1OC
-5.7%,Cn1c(CO)nc2cc(N)ccc21
-16.4%,COCCn1nnnc1C(c1cc2ccc(C)cc2[nH]c1=O)N(Cc1ccco1)Cc1cccs1 (stereo not drawn)
-25.1%,CC1CCCCC12NC(=O)N(CC(=O)Nc1sc3c(c1C(N)=O)CCC3)C2=O (stereo not drawn)
?,O=C(O)Cc1sc(-c2ccc(Cl)cc2)nc1-c1ccccc1
-6.7%,O=C1c2ccccc2C(O)(c2ncc[nH]2)N1C1CCCCC1 (stereo not drawn)
-13.5%,c1ccc2c(c1)nnn2CNc1nccs1
-5.0%,Cn1c(=O)c2c(nc(CN3CCN(C(=O)c4ccco4)CC3)n2Cc2ccccc2)n(C)c1=O
-8.2%,Cc1ccc(NC(=O)c2ccncc2)cc1S(=O)(=O)N(C)C
-13.7%,CCCCCCN=C(C)C1=C(O)C(C(=O)OC)C(C)(C)CC1=O (stereo not drawn)
-12.7%,Nc1nc2c(nc(Cl)n2C2OC(CO)C(O)C2O)c(=O)[nH]1 (stereo not drawn)
12.6µM*,CCC(=O)N(CC)C1=C(O)c2ccccc2C(=O)C1=O
-10.6%,Cc1cc(Nc2nnnn2-c2ccccc2)n(-c2ccccc2)n1
-10.3%,COc1cc(=O)[nH]c(=O)n1C(=O)Cc1ccccc1
-7.0%,CC(C)(C)NS(=O)(=O)c1ccc(CCC(=O)NCc2ccco2)cc1
-17.4%,Cc1nc2ccc(F)cc2cc1C(=O)NCC1CCCO1 (stereo not drawn)
-11.9%,CNC(=S)N1CCN(c2ccc([N+](=O)[O-])cc2)CC1

More entries follow.
HPGD inh,Structure
15.8µM*,COc1ccc(/C=C2\SC(=O)NC2=S)cc1OC
25.1µM*,O=C(CN1C(=O)C2C3C=CC(C3)C2C1=O)OCC(=O)c1ccccc1 (stereo not drawn)
?,COc1ccccc1NC(=O)c1sc2ncn(Cc3ccc(C)cc3)c(=O)c2c1C
-5.5%,Cc1cc(=O)oc(C)c1C(=O)NCc1ccccc1
-16.2%,N#C/C(=C(/O)COC(=O)CSc1ccc2ccccc2c1)c1nc2ccccc2[nH]1
-7.2%,O=C(Nc1cccnc1)C1CCN(S(=O)(=O)c2cccc3nonc23)CC1
-4.9%,Cc1ccc(CSCC(=O)Nc2c(C)n(C)n(-c3ccccc3)c2=O)cc1
?,CCOC(=O)N1CCC(NC(=O)c2cc3c(-c4cccc(OC)c4)nn(C)c3s2)CC1
-0.9%,O=C(CCC(=O)c1ccc(F)cc1)Nc1cc(Cl)cc(Cl)c1
-7.5%,Cc1ccccc1OCC(=O)OCC(=O)Nc1cc(C(F)(F)F)ccc1N1CCOCC1
-5.2%,CCC1=Nc2ccccc2-c2nnc(SC)nc2O1
14.1µM*,Cc1ccc(NC(=O)C(C)Sc2nnc(-c3cccnc3)n2-c2ccccc2)cc1 (stereo not drawn)
-15.9%,O=C(NC1CCCCC1)C(c1ccc(F)cc1)N(Cc1ccco1)C(=O)CN1C(=O)c2ccccc2S1(=O)=O (stereo not drawn)
28.2µM*,N/C(Cc1cccc2ccccc12)=N\OC(=O)Cc1cccs1
-7.3%,Nc1c(C(=O)NCCc2ccccc2)nnn1Cc1ccccc1
-15.4%,O=C(Nc1ccc2c(c1)OC1(CCCC1)O2)C1CC1
?,CSc1ccccc1NC(=O)c1cc(C2CC2)on1
-4.9%,Cc1ccc(NC(=O)CSc2ccc(C(N)=O)cc2[N+](=O)[O-])cc1
-10.0%,CCCn1c(SCC(=O)N2c3ccc(F)cc3CCC2C)nnc1-c1ccccn1 (stereo not drawn)
-19.6%,Cc1onc(-c2c(F)cccc2Cl)c1C(=O)Nc1nc2c(s1)CCCC2
-2.6%,O=C(Nc1ccc(-c2cn3ccsc3n2)cc1)c1ccc(F)c(S(=O)(=O)N2CCOCC2)c1
?,Cc1ccc(C)c(-n2c(-c3csc(C)c3)n[nH]c2=S)c1
?,COc1ccc2cc3cc(C(=O)NC(C)C)oc3nc2c1

Not all compounds are listed; the hit share may differ from the screen's.
